# Assay outcomes deposited in PubChem BioAssay by Broad Institute.
# FGF22 binding = FGF22 (human) thermal shift binding | Q9HCT0 | recombinant FGF22 thermal shift, SYPRO orange fluorescence; percent of sucrose octasulfate shift, DMSO zero | calls only at 9.99 µM | hit rate 1.5% among 340,000;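 active = melting point raised past a set limit in the mean and every replicate; three in four hits are not shown here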
# Target sequence (Q9HCT0 whole entry, looked up): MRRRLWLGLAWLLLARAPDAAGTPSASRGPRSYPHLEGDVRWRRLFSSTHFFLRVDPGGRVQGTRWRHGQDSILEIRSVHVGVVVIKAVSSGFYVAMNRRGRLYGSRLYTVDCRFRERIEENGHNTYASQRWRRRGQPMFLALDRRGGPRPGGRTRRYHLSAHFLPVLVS
# AF4-AF9 inh = blocks AF4 peptide binding to human AF9; P42568; AlphaScreen, biotin-AF4 peptide binding to FLAG-AF9; inhibition, % at 10 µM; hit rate 0.47% among 350,000; AID 651704;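 active = every replicate reaching a set inhibition limit, whatever the replicate mean, cut at about 25% in these data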;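 also: 0% = plate neutral control median and 100% = total signal loss; the record names both 10 and 1 µM as test concentration; the first replicate is given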
# Target sequence (P42568 whole entry, looked up): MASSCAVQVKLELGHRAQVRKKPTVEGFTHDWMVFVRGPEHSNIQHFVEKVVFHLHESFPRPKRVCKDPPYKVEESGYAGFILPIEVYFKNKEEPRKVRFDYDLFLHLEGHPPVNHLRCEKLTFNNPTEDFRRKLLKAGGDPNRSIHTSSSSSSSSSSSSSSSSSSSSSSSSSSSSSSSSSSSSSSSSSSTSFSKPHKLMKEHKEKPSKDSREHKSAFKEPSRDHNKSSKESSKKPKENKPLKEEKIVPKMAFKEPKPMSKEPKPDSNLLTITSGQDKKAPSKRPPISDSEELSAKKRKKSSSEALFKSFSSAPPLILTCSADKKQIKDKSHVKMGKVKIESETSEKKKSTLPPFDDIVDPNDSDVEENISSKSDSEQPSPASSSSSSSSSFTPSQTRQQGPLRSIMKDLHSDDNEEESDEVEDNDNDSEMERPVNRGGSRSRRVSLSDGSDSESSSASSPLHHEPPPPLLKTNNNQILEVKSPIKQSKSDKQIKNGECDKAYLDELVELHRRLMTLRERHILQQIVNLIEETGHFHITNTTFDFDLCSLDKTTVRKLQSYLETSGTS
# An asterisk follows results filed as active; i = inactive; & = joins results of further samples.
item	SMILES	FGF22 binding	AF4-AF9 inh
1	Cc1noc(C)c1S(=O)(=O)Nc1ccc2c(c1)C(=O)N([C@@H](C)CO)C[C@@H](C)[C@@H](CN(C)C(=O)NC(C)C)O2	i	-4.4
2	O=C(C[C@H]1C=C[C@H](NC(=O)c2ccc(F)cc2)[C@H](CO)O1)NCCc1ccccc1	i	-1.5
3	COc1ccccc1CNC(=O)C[C@H]1CC[C@H]2[C@@H](COc3ccc(NC(=O)Nc4ccc(F)c(F)c4)cc3C(=O)N2C)O1	i	0.1
4	O=C(C[C@@H]1CC[C@@H](NC(=O)c2ccncc2)[C@@H](CO)O1)NCC1CC1	i	-4.6
5	C[C@H](CO)N1C[C@H](C)[C@@H](CN(C)S(=O)(=O)c2ccc(F)cc2)Oc2ccc(NC(=O)c3ccncc3)cc2CC1=O	i	0.6
6	O=C(C[C@@H]1C[C@@H]2c3cc(NC(=O)c4cccnc4)ccc3O[C@@H]2[C@@H](CO)O1)NCc1ccc(Oc2ccccc2)cc1	i	1.0
7	CC(C)c1cn(CC[C@@H]2CC[C@@H](NC(=O)C3CCCC3)[C@H](CO)O2)nn1	i	1.7
8	C[C@H]1CN([C@@H](C)CO)C(=O)c2cccc(NS(=O)(=O)c3ccc(Cl)cc3)c2O[C@H]1CN(C)Cc1ccccc1	i	-1.5
9	CCCN(C)C[C@H]1OCCCC[C@H](C)Oc2ccc(NS(=O)(=O)c3c(C)noc3C)cc2C(=O)N([C@@H](C)CO)C[C@H]1C	i	-3.8
10	CN1C[C@@H]2[C@H](c3ccccc31)[C@@H](CO)N2S(=O)(=O)c1ccccc1	i	-2.7
11	CC(=O)N1[C@H](C(=O)NCC2CC2)[C@@H](CO)[C@@H]2Cn3c(ccc(-c4ccccc4F)c3=O)[C@@H]21	i	-0.1
12	O=C(C[C@@H]1CC[C@H]2[C@@H](COC[C@@H](O)CN2C(=O)Nc2ccccc2)O1)NCc1ccccc1F	i	-0.2
13	C[C@H]1CCCCO[C@H](CN(C)Cc2ccc3c(c2)OCO3)[C@@H](C)CN([C@@H](C)CO)C(=O)c2cc(NS(C)(=O)=O)ccc2O1	i	1.4
14	CS(=O)(=O)Nc1ccc2c(c1)[C@H]1C[C@@H](CC(=O)NCc3cccnc3)O[C@@H](CO)[C@H]1O2	i	-2.2
15	C[C@@H]1CN([C@H](C)CO)C(=O)Cc2cc(NS(=O)(=O)c3ccc(F)cc3)ccc2O[C@@H]1CN(C)S(=O)(=O)c1cn(C)cn1	i	4.7
16	C[C@@H]1CN([C@H](C)CO)C(=O)c2cc(C#CCN(C)C)cnc2O[C@@H]1CN(C)Cc1ccccc1	i	-0.6
17	CC=Cc1ccc2n(c1=O)C[C@@H]1[C@@H](CO)[C@H](C(=O)NCc3ccccc3Cl)N(S(C)(=O)=O)[C@H]21 (mixture of isomers)	i	2.5
18	C[C@@H]1CN([C@@H](C)CO)C(=O)c2cccc(NC(=O)Nc3ccc4c(c3)OCO4)c2O[C@@H]1CN(C)S(=O)(=O)c1ccccc1	i	6.7
19	CO[C@H]1CN(C)C(=O)c2cc(NS(=O)(=O)CC(F)(F)F)ccc2OC[C@H](C)NC[C@@H]1C	i	-2.4
20	COc1ccc2c3c(n(C)c2c1)[C@H](CO)N(C(=O)Nc1ccc(F)cc1)CC31CCN(C(=O)Nc2c(C)noc2C)CC1	i	-1.1
21	CCCC#Cc1cnc2c(c1)C(=O)N([C@@H](C)CO)C[C@H](C)[C@H](CN(C)C(=O)CN1CCOCC1)O2	i	-3.5
22	O=C(C[C@@H]1CC[C@@H](NC(=O)Nc2ccc(F)cc2)[C@H](CO)O1)NCCN1CCCC1	i	-7.2
23	COc1cc2c(cc1OC)-c1onc(-c3ccc(OCCO)cc3)c1CCCN(CC(C)O)CC2 (configuration not stated)	i	-1.2
24	CCCN1[C@@H]2Cn3c(ccc(C4=CCCCC4)c3=O)[C@H]1[C@@H](C(=O)N1CCc3ccccc3C1)[C@@H]2CO	i	5.5
25	COc1ccccc1S(=O)(=O)N[C@H]1CC[C@H](CC(=O)N2CCOCC2)O[C@H]1CO	i	-2.5
26	CCC(=O)Nc1ccc2c(c1)C(=O)N(C)C[C@@H](OC)[C@H](C)CN(C(=O)CC)[C@@H](C)CO2	i	0.8
27	COCCN(C[C@H]1N[C@H](CO)[C@@H]1c1ccc(-c2ccc(F)cc2)cc1)C(C)=O	i	2.3
28	CC(C)NC(=O)Nc1ccc2c(c1)C(=O)N([C@@H](C)CO)C[C@H](C)[C@H](CN(C)C(=O)NC1CCCCC1)OCCCC[C@@H](C)O2	i	-3.2
29	C[C@H](CO)N1C[C@H](C)[C@@H](CN(C)C(=O)Nc2ccc3c(c2)OCO3)Oc2cc(C3=CCCCC3)ccc2S1(=O)=O	i	7.8
30	CC(=O)N(C)C[C@@H]1Oc2ncc(-c3cccc(C#N)c3)cc2C(=O)N([C@H](C)CO)C[C@@H]1C	i	-2.3
31	CN1C(=O)c2cc(NC(=O)Cc3cccs3)ccc2OC[C@@H]2O[C@@H](CC(=O)NCC3CC3)CC[C@H]21	i	-6.1
32	C[C@@H]1CN([C@H](C)CO)C(=O)Cc2cc(NC(=O)Nc3cccc4ccccc34)ccc2O[C@@H]1CN(C)Cc1ccc(Cl)c(Cl)c1	i	-0.7
33	O=C(N[C@@H]1CC[C@@H](CCNS(=O)(=O)c2ccc(Cl)cc2)O[C@@H]1CO)c1ccccn1	i	-1.4
34	O=C(C[C@H]1C=C[C@H](NS(=O)(=O)c2ccc(F)cc2)[C@H](CO)O1)NCCc1ccncc1	i	-0.5
35	CCCNC(=O)C[C@H]1CC[C@H]2[C@@H](COC[C@H](O)CN2C(=O)c2cccnc2)O1	i	-2.1
36	CCNC(=O)C[C@H]1CC[C@@H]2[C@@H](COc3ccc(NS(C)(=O)=O)cc3C(=O)N2C)O1	i	-4.3
37	CN(C)C(=O)c1cccc(-c2ccc3c(c2)[C@@H]2[C@@H](CCN2C(=O)Nc2ccc(F)cc2)[C@H](CO)N3C)c1	i	4.5
38	C[C@@H]1CN([C@@H](C)CO)C(=O)c2cc(NC(=O)c3ccncc3)ccc2O[C@@H]1CN(C)S(=O)(=O)c1cccs1	i	-1.9
39	Cc1noc(C)c1NC(=O)N(C)C[C@H]1Oc2ccc(NC(=O)C3CC3)cc2CC(=O)N([C@@H](C)CO)C[C@H]1C	i	-2.8
40	CCC(=O)N1[C@H](CO)[C@@H]2c3ccccc3N(C(=O)NC(C)C)C[C@@H]21	i	-1.5
41	CCCC#Cc1cnc2c(c1)C(=O)N([C@H](C)CO)C[C@@H](C)[C@@H](CN(C)Cc1ccncc1)O2	i	0.2
42	C[C@H](CO)N1C[C@H](C)[C@@H](CN(C)C(=O)Nc2cccc3ccccc23)Oc2ccc(NC(=O)Nc3ccc(C(F)(F)F)cc3)cc2CC1=O	i	-21.3
43	O=C(C[C@H]1CC[C@@H]2[C@H](COC[C@H](O)CN2Cc2ccncc2)O1)NCc1ccncc1	i	-4.3
44	COc1cccc(S(=O)(=O)N[C@@H]2CC[C@@H](CCn3cc(-c4ccccc4)nn3)O[C@H]2CO)c1	i	3.6
45	O=C(N[C@@H]1CC[C@H](CC(=O)N2CCCCC2)O[C@@H]1CO)c1cccc(F)c1	i	-2.0
46	CNC[C@H]1Oc2ccc(NC(=O)CCN3CCOCC3)cc2CC(=O)N([C@@H](C)CO)C[C@H]1C	i	-1.6
47	O=S(=O)(c1cccs1)N1CCCCN2[C@H](C1)[C@H](c1ccc(Br)cc1)[C@@H]2CO	i	-2.8
48	COc1ccc(NC(=O)N(C)C[C@@H]2Oc3c(NC(=O)Nc4ccc(F)cc4)cccc3C(=O)N([C@@H](C)CO)C[C@H]2C)cc1	i	-0.8

# Profiles from above. Values in the order: FGF22 binding	AF4-AF9 inh
# O=C(C[C@H]1CC[C@@H]2[C@H](COC[C@H](O)CN2Cc2ccncc2)O1)NCc1ccncc1 is listed with i	-4.3
# CO[C@H]1CN(C)C(=O)c2cc(NS(=O)(=O)CC(F)(F)F)ccc2OC[C@H](C)NC[C@@H]1C is listed with i	-2.4

# (listing goes on)
item	SMILES	FGF22 binding	AF4-AF9 inh
49	CCCN1C[C@H](C)[C@H](OC)CN(C)C(=O)c2ccc(NC(=O)C3CCC3)cc2OC[C@H]1C	i	-2.6
50	CN1C(=O)c2cc(NC(=O)c3ccccc3)ccc2OC[C@H]2O[C@@H](CC(=O)NCC3CC3)CC[C@@H]21	i	0.5
51	COc1ccc(-c2cnc3c(c2)C(=O)N([C@@H](C)CO)C[C@@H](C)[C@@H](CN(C)Cc2ccccn2)O3)cc1	i	-3.5
52	CN1CCN(C(=O)C[C@H]2CC[C@@H]3[C@H](COC[C@H](O)CN3C(=O)C3CCCC3)O2)CC1	i	0.2
53	CN(C)C(=O)c1ccc(-c2cccc(-c3nc(C(=O)NC4CCCC4)cc4c3[C@@H](CCO)N([S@](=O)C(C)(C)C)C4)c2)cc1	i	-0.3
54	COc1ccc(NC(=O)N(C)C[C@@H]2Oc3ncc(-c4ccc(C#N)cc4)cc3C(=O)N([C@H](C)CO)C[C@H]2C)cc1	i	-0.7
55	Cc1ccccc1S(=O)(=O)N(C)C[C@H]1OCc2cnnn2CCCC(=O)N([C@H](C)CO)C[C@@H]1C	i	1.5&1.4
56	C[C@@H]1CN([C@H](C)CO)C(=O)Cc2cc(NC(=O)Cn3cnnn3)ccc2O[C@H]1CN(C)Cc1ccccc1	i	-0.9
57	CCCNC(=O)N1CCC2(CC1)CN(C(=O)COC)[C@H](CO)c1[nH]c3cc(OC)ccc3c12	i	-1.2
58	C[C@@H]1CCCCO[C@@H](CN(C)Cc2ccc(Cl)c(Cl)c2)[C@@H](C)CN([C@H](C)CO)C(=O)c2cc(NC(=O)Nc3ccc(F)cc3)ccc2O1	i	-1.5
59	COCC(=O)Nc1ccc2c(c1)OC[C@@H](C)N(C(=O)COC)C[C@@H](C)[C@@H](OC)CN(C)C2=O	i	-1.2
60	CO[C@@H](CN(C)C(=O)c1ccccc1F)[C@@H](C)CN([C@H](C)CO)S(=O)(=O)c1ccc(Cl)cc1	i	1.2
61	CCCC(=O)Nc1ccc2c(c1)C(=O)N(C)[C@@H]1CC[C@@H](CC(=O)NCCc3ccncc3)O[C@H]1CO2	i	-0.5
62	C[C@@H]1CCCCO[C@H](CN(C)C(=O)CCCN(C)C)[C@H](C)CN([C@@H](C)CO)C(=O)c2cc(NC(=O)Nc3ccccc3)ccc2O1	i	8.5
63	CC(C)NC(=O)Nc1ccc2c(c1)CC(=O)N([C@@H](C)CO)C[C@H](C)[C@H](CN(C)Cc1ccc(Cl)c(Cl)c1)O2	i	-5.8
64	CO[C@H]1CN(C)C(=O)c2ccc(NC(=O)C3CCCCC3)cc2OC[C@H](C)N(Cc2nccs2)C[C@H]1C	i	2.6
65	Cc1noc(C)c1S(=O)(=O)Nc1ccc2c(c1)C(=O)N([C@@H](C)CO)C[C@@H](C)[C@@H](CN(C)Cc1ccc(Cl)c(Cl)c1)OCCCC[C@@H](C)O2	i	8.3
66	COc1ccc(-c2ccc([C@@H]3[C@@H](C#N)N(C(=O)C4CCCCC4)[C@H]3CO)cc2)cc1	i	-1.7
67	CO[C@H]1CN(C)C(=O)c2cc(NS(=O)(=O)CC(F)(F)F)ccc2OC[C@H](C)N(CCC(F)(F)F)C[C@@H]1C	i	-0.9
68	C[C@H](CO)N1C[C@H](C)[C@@H](CN(C)C)Oc2ncc(C3=CCCC3)cc2C1=O	i	-3.9
69	C[C@H]1CN([C@@H](C)CO)C(=O)c2cc(C3=CCCCC3)cnc2O[C@H]1CN(C)Cc1ccccn1	i	-5.5
70	C/C=C/c1ccc2c(c1)O[C@@H](CN(C)C(=O)COC)[C@H](C)CN([C@H](C)CO)S2(=O)=O	i	-5.6
71	C[C@H](CO)N1C[C@H](C)[C@H](CN(C)S(=O)(=O)c2ccc(F)cc2)Oc2c(NC(=O)c3nc4ccccc4s3)cccc2C1=O	i	1.2
72	C[C@@H]1CN([C@H](C)CO)C(=O)Cc2cc(NC(=O)CCCCCC(=O)Nc3ccccc3N)ccc2O[C@H]1CN(C)C(=O)Nc1cccc2ccccc12	i	-2.2
73	COc1ccc2c3c(n(C)c2c1)[C@H](CO)N(Cc1cc(F)ccc1F)CC31CN(C(C)=O)C1	i	-1.1
74	C/C=C/c1ccc2c(c1)O[C@H](CN(C)Cc1ccc(F)cc1)[C@@H](C)CN([C@H](C)CO)S2(=O)=O	i	9.4
75	C[C@@H]1CN([C@@H](C)CO)C(=O)c2cccc(NC(=O)C3CCOCC3)c2O[C@@H]1CN(C)Cc1ccncc1	i	44.3*
76	C[C@H](CO)N1C[C@H](C)[C@H](CN(C)Cc2ccc(Cl)c(Cl)c2)OCCCC[C@H](C)Oc2ccc(NC(=O)Nc3ccc(F)cc3)cc2C1=O	i	0.9
77	C[C@H]1CN([C@@H](C)CO)C(=O)c2cc(NC(=O)Nc3ccc(F)cc3)ccc2O[C@@H]1CN(C)Cc1ccncc1	i	4.3
78	C[C@@H]1CN([C@@H](C)CO)C(=O)c2cc(NC(=O)C3CCCCC3)ccc2O[C@@H](C)CCCCO[C@H]1CN(C)Cc1ccc(C(=O)O)cc1	i	2.0

# 4 compounds picked at random from the list so far, as already listed:
item	SMILES	FGF22 binding	AF4-AF9 inh
77	C[C@H]1CN([C@@H](C)CO)C(=O)c2cc(NC(=O)Nc3ccc(F)cc3)ccc2O[C@@H]1CN(C)Cc1ccncc1	i	4.3
73	COc1ccc2c3c(n(C)c2c1)[C@H](CO)N(Cc1cc(F)ccc1F)CC31CN(C(C)=O)C1	i	-1.1
78	C[C@@H]1CN([C@@H](C)CO)C(=O)c2cc(NC(=O)C3CCCCC3)ccc2O[C@@H](C)CCCCO[C@H]1CN(C)Cc1ccc(C(=O)O)cc1	i	2.0
76	C[C@H](CO)N1C[C@H](C)[C@H](CN(C)Cc2ccc(Cl)c(Cl)c2)OCCCC[C@H](C)Oc2ccc(NC(=O)Nc3ccc(F)cc3)cc2C1=O	i	0.9

# An excerpt, so the mix of outcomes need not match the whole.
